BJeLR viability: lowers viability of BJeLR cells | BJeLR fibroblasts viability, CellTiterGlo ATP luminescence, 48 h; HRASV12, hTERT and SV40 LT/ST transformed | viability loss activity score, % (no concentration beside the values) | actives 0.64% (n = 30,000) | AID 2275; in the data active = viability loss activity score above about 50%; about a fifth of its hits are not listed in these tables;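 also: higher score means fewer live cells and less ATP luminescence; stock transfer was 50 or 100 nL into about 30 µL; 0% = vehicle wells and 100% = a reference killing control; one replicate is shown; the record names a cut of 85%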
A1 inh: inhibitors of A1. MEF A1-2A-BIM cells, caspase-Glo luminescence, 3 h; percent of clofoctol signal, DMSO as zero. caspase activation, % (test concentration not listed). actives 0.51% (n = 21,000);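 active = most replicate scores above 10, or exactly half above 10 with mean activity above 10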;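 also: effector caspase 3 and 7 activity cleaving a DEVD luciferin substrate; 50 nL library stock added to about 30 µL; numbers are from one replicate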
* marks the source's active call; other numbers are inactive results; . = no result given. This is a subset; rates above refer to the full screens.

Preview, three compounds:
mol,BJeLR viability,A1 inh
C[C@H](CO)N1C[C@H](C)[C@@H](CN(C)Cc2ccc(C(=O)Nc3ccccc3N)cc2)Oc2ccc(NC(=O)Nc3ccc(F)cc3)cc2C1=O,-11,.
COc1ccc(CN(C)C[C@H]2Oc3ccc(NC(=O)Nc4ccc(OC)cc4)cc3C(=O)N([C@H](C)CO)C[C@H]2C)cc1,-1.2,1.0
Cc1ccc(C(=O)/C=C2\N/C(=N/S(=O)(=O)c3ccc(N)cc3)NC2=O)cc1,4.7,0.6

All compounds of this part (from the top)
mol,BJeLR viability,A1 inh
C[C@H](CO)N1C[C@H](C)[C@@H](CN(C)Cc2ccc(C(=O)Nc3ccccc3N)cc2)Oc2ccc(NC(=O)Nc3ccc(F)cc3)cc2C1=O,-11,.
COc1ccc(CN(C)C[C@H]2Oc3ccc(NC(=O)Nc4ccc(OC)cc4)cc3C(=O)N([C@H](C)CO)C[C@H]2C)cc1,-1.2,1.0
Cc1ccc(C(=O)/C=C2\N/C(=N/S(=O)(=O)c3ccc(N)cc3)NC2=O)cc1,4.7,0.6
C[C@H]1CN([C@@H](C)CO)C(=O)c2cccc(NC(=O)C3CCCCC3)c2O[C@@H]1CN(C)S(=O)(=O)c1cn(C)cn1,-3.1,.
C[C@H](CO)N1C[C@H](C)[C@@H](CN(C)S(=O)(=O)c2ccc(Cl)cc2)Oc2c(NC(=O)C3CCCCC3)cccc2C1=O,4.4,.
COc1ccc(-c2c(C)oc3c(CN4CCN(C)CC4)c(O)ccc3c2=O)cc1,7.3,.
C[C@H]1CN([C@@H](C)CO)C(=O)c2cc(NS(=O)(=O)c3ccc(F)cc3)ccc2O[C@@H]1CN(C)C(=O)NC1CCCCC1,2.2,-1.2
COc1ccccc1NC(=O)CSc1nncn2c1cc1oc(C)cc12,5.3,-0.7
CCOC(=O)c1sc2nc(SCC(=O)c3ccc(Br)cc3)n(N)c(=O)c2c1C,6.5,0.0
C[C@@H]1CN([C@H](C)CO)C(=O)c2cccc(NC(=O)Nc3ccccc3)c2O[C@H]1CN(C)CC1CCCCC1,-2.5,.
C[C@H](CO)N1C[C@H](C)[C@@H](CN(C)Cc2ccc3c(c2)OCO3)Oc2ccc(NS(=O)(=O)c3ccccc3)cc2C1=O,2.0,0.1
C[C@H]1CN([C@@H](C)CO)C(=O)c2cc(NC(=O)Nc3ccc(C(F)(F)F)cc3)ccc2O[C@H]1CN(C)C(=O)NC1CCCCC1,3.5,0.6
O=C(Oc1nc2ccccc2s1)c1ccccc1C(=O)c1ccccc1,0.9,0.5
Cc1noc(C)c1NC(=O)N(C)C[C@@H]1Oc2ccc(NS(=O)(=O)c3ccccc3)cc2C(=O)N([C@@H](C)CO)C[C@H]1C,-2.2,-0.2
Cc1cc(-c2ccc(N=Nc3cc(S(=O)(=O)O)c4ccccc4c3N)c(C)c2)ccc1N=Nc1cc(S(=O)(=O)O)c2ccccc2c1N,24,-1.3
C[C@H]1CN([C@@H](C)CO)C(=O)c2cccc(NC(=O)C3CCCCC3)c2O[C@H]1CN(C)C,-1.9,.
C[C@H](CO)N1C[C@H](C)[C@H](CN(C)C(=O)Nc2ccccc2)Oc2c(NS(=O)(=O)c3ccc(Cl)cc3)cccc2C1=O,1.4,.
Cc1c(C)c(C)c(S(=O)(=O)NC(C)(C)C)c(C)c1C,-0.9,-0.4
COc1ccc(CCN2C(=O)/C(=C/c3ccccc3Cl)SC2=S)cc1OC,2.6,-0.3
O=C(NC(Cc1ccccc1)C(=O)N1CCCCC1)c1cccs1 (stereo not given),-4.4,0.9
CC1Cc2ccccc2N1C(=O)c1cccc(C(=O)N2c3ccccc3CC2C)n1 (stereo not given),-3.7,0.6
O=C(CCCC(=O)Nc1ccc(F)cc1)Nc1ccc(F)cc1,2.7,-0.3
COc1ccc(CN(C)C[C@@H]2Oc3c(NC(=O)c4ccc(-c5nccs5)cc4)cccc3C(=O)N([C@H](C)CO)C[C@@H]2C)cc1,3.6,.
C[C@@H]1CN([C@@H](C)CO)C(=O)c2cc(NC(=O)Nc3cccc4ccccc34)ccc2O[C@@H]1CN(C)Cc1ccncc1,-8.6,1.2
Cc1oc(-c2ccc(Cl)cc2)cc1COC(=O)Nc1ccccc1,-3.7,-1.2
CC1CC(=O)C2=C(C1)C(Cl)C(O)C1(O)C2C(=O)c2cccc(O)c2C1O (stereo not given),-4.8,-0.3
C[C@@H]1CN([C@@H](C)CO)C(=O)c2cc(NS(=O)(=O)c3ccc(F)cc3)ccc2O[C@@H]1CN(C)Cc1ccc(C(F)(F)F)cc1,-0.2,-1.0
C[C@H](CO)N1C[C@H](C)[C@@H](CN(C)CC2CCCCC2)Oc2ccc(NC(=O)Cc3cn(C)c4ccccc34)cc2C1=O,0.8,0.2
O=C1CCCC2=C1C(c1ccc(Br)cc1)n1nc(-c3ccco3)nc1N2 (stereo not given),0.1,.
C[C@H]1CN([C@@H](C)CO)C(=O)c2cccc(NC(=O)Nc3ccc4c(c3)OCO4)c2O[C@H]1CN(C)Cc1ccncc1,0.8,.

(continued)
| Compound | BJeLR viability | A1 inh |
| --- | --- | --- |
| C[C@H]1CN([C@@H](C)CO)C(=O)c2cc(NC(=O)Cn3cnnn3)ccc2O[C@H]1CN(C)S(=O)(=O)c1cn(C)cn1 | 0.6 | -0.4 |
| NC(=O)N1CCc2ccccc21 | -5.3 | 0.4 |
| Cc1cccc(NC(=O)Cn2c(=O)n(-c3ccc(F)cc3)c(=O)c3sccc32)c1 | -0.1 | . |
| CNC[C@@H]1Oc2ccc(NS(=O)(=O)c3c(C)noc3C)cc2C(=O)N([C@@H](C)CO)C[C@H]1C | 3.1 | 0.5 |
| CC1(C)CC[C@]2(C(=O)O[C@@H]3O[C@H](CO)[C@@H](O)[C@H](O)[C@H]3O)CC[C@]3(C)C(=CCC4[C@@]5(C)C[C@@H](O)[C@H](O)[C@@](C)(CO)C5CC[C@]43C)C2C1 (stereo not given in full) | 9.6 | -0.1 |
| Cc1noc(C)c1S(=O)(=O)N(C)C[C@@H]1Oc2ccc(NS(=O)(=O)c3ccc(F)cc3)cc2C(=O)N([C@H](C)CO)C[C@@H]1C | 2.1 | 1.0 |
| Cc1ccc(CS(=O)Cc2ccc(C(=O)N3CCN(Cc4ccccc4)CC3)o2)cc1 (stereo not given) | -4.2 | 0.1 |
| CNC[C@@H]1Oc2ccc(NC(=O)CCCN(C)C)cc2C(=O)N([C@@H](C)CO)C[C@H]1C | 5.9 | -0.7 |
| O=C(O)c1cnn2c(C(F)(F)F)cc(-c3ccco3)nc12 | -1.0 | 1.3 |
| O=C(Nc1csnc1-c1c(Cl)cccc1Cl)NN1CCCCC1 | 1.9 | -0.6 |
| C[C@H](CO)N1C[C@H](C)[C@H](CN(C)Cc2ccccc2)Oc2ccc(NC(=O)CCCN(C)C)cc2C1=O | 3.6 | 0.5 |
| O=C(C1CC1)N1N=C(c2ccc(Cl)cc2)CC1(O)C(F)(F)F (stereo not given) | -1.7 | 0.4 |
| COC(=O)C(C)NC(=O)C12CC3(C)CC(C)(CC(C)(C3)C1)C2 (stereo not given) | 1.2 | -0.1 |
| Cc1cc(C)c2c(c1)CC(C)(C)c1[nH]c(-c3ccccc3)nc1-2 | -0.6 | -1.1 |
| Cc1cc(NC(=O)c2cc(-c3ccc(F)cc3)no2)nn1CC(=O)N1CCC(C)CC1 | -0.4 | -0.5 |
| Cc1ccc(CNC(=O)CSc2nc3ccsc3c(=O)n2C2CC2)cc1 | -1.8 | 0.6 |
| CC(C)NC(=O)Nc1cccc2c1O[C@@H](CN(C)S(=O)(=O)c1cn(C)cn1)[C@H](C)CN([C@H](C)CO)C2=O | -8.6 | . |
| COc1ccccc1-c1nn(CCC(=O)NC2CCCC2)c2nc(C)cc(C)c12 | -3.1 | 0.8 |
| C[C@H](CO)N1C[C@H](C)[C@@H](CN(C)CC2CCCCC2)Oc2c(NC(=O)C3CC3)cccc2C1=O | -4.5 | . |
| COC(=O)C1CN(C(=O)/C=C/c2ccccc2)c2ccccc2O1 (stereo not given) | -2.4 | -4.8 |
| COc1ccc(NC(=O)Nc2cccc3c2O[C@@H](CN(C)Cc2ccc4c(c2)OCO4)[C@H](C)CN([C@H](C)CO)C3=O)cc1 | -0.2 | . |
| COc1ccc(OC)c(/C=N/N2C(=O)C3C(C2=O)C2C=CC3C23CC3)c1 (stereo not given) | 3.3 | -0.4 |
| COC(=O)c1cc(OC)cc(O)c1C(=O)c1c(O)cc(C)cc1O | -0.7 | 0.1 |
| Cc1ccc(S(=O)(=O)Nc2ccc3c(c2)C(=O)N([C@H](C)CO)C[C@H](C)[C@H](CN(C)Cc2ccncc2)O3)cc1 | -3.9 | 1.0 |
| C[C@@H]1CN([C@@H](C)CO)C(=O)c2cc(NC(=O)Nc3cccc4ccccc34)ccc2O[C@H]1CN(C)S(=O)(=O)c1ccc(Cl)cc1 | -0.9 | 0.3 |
| COc1ccc(CN(C)C[C@H]2Oc3ccc(NC(=O)c4ccncc4)cc3C(=O)N([C@H](C)CO)C[C@@H]2C)cc1 | -1.0 | -0.8 |
| C[C@@H]1CN([C@H](C)CO)C(=O)c2cccc(NC(=O)c3nc4ccccc4s3)c2O[C@@H]1CN(C)S(C)(=O)=O | -1.2 | . |
| O=S(=O)(NCCNc1ncnc2scc(-c3ccccc3)c12)c1ccc(Cl)cc1 | 4.7 | . |
| c1ccc(-c2nnc(N3CCc4ccccc43)nc2-c2ccccc2)cc1 | 16 | -0.3 |
| Cc1ccc(C(=O)c2ccc(C)c(C)c2)cc1C | 6.0 | -2.9 |
| Cc1ccc(S(=O)(=O)N(C)C[C@H]2Oc3ccc(N(C)C)cc3C(=O)N([C@H](C)CO)C[C@H]2C)cc1 | -1.8 | 0.4 |
| OC(c1ccccc1)(c1ccccc1)C1CCN(C(=S)NCCc2ccccc2)CC1 | -0.4 | 0.4 |
| Cc1noc(C)c1NC(=O)Nc1ccc2c(c1)C(=O)N([C@@H](C)CO)C[C@H](C)[C@H](CN(C)C(=O)Nc1ccc3c(c1)OCO3)O2 | 1.3 | -0.8 |
| CNC[C@H]1Oc2ccc(NC(=O)Nc3ccc(OC)cc3)cc2C(=O)N([C@@H](C)CO)C[C@@H]1C | -2.7 | -0.3 |
| C=C(C)COc1ccc(/C=C(/NC(=O)c2ccccc2)C(=O)O)cc1OC | -1.7 | -0.3 |
| Cn1nnc2c(NCC(=O)C(C)(C)C)nc(Cc3ccc(Cl)cc3Cl)nc21 | 1.2 | -0.4 |
| C[C@@H]1CN([C@@H](C)CO)C(=O)c2cc(NS(=O)(=O)c3cn(C)cn3)ccc2O[C@@H]1CN(C)C(=O)Nc1ccc(F)cc1 | -7.8 | 0.3 |
| C[C@@H]1CN([C@@H](C)CO)C(=O)c2cc(NC(=O)c3ccncc3)ccc2O[C@H]1CN(C)S(=O)(=O)c1ccc(F)cc1 | 1.7 | -0.7 |
| C[C@H](CO)N1C[C@H](C)[C@@H](CN(C)Cc2ccc(C(=O)O)cc2)Oc2c(NS(=O)(=O)c3ccc(Cl)cc3)cccc2C1=O | 0.6 | . |
| O=C(Nc1ccccc1)Nc1ccccc1SCCS(=O)(=O)c1ccc(Cl)cc1 | 4.3 | -2.8 |
| CCOC(=O)N1CCN(C(=O)CSc2nnc(Cc3cccn3C)n2-c2ccc(F)cc2)CC1 | 0.3 | -0.7 |
| C[C@H](CO)N1C[C@H](C)[C@H](CN(C)Cc2ccc(Oc3ccccc3)cc2)Oc2ccc(NC(=O)Cc3ccccc3)cc2C1=O | 2.0 | 0.0 |
| CSc1nc(COc2ccc(C(C)(C)C)cc2)nc(N)c1C#N | -9.3 | 0.5 |
| CCOC(=O)c1c[nH]c2c(C)c(Cl)ccc2c1=O | 5.7 | 0.2 |
| COc1ccc(S(=O)(=O)N(C)C[C@@H]2Oc3c(NC(=O)NC(C)C)cccc3C(=O)N([C@H](C)CO)C[C@H]2C)cc1 | -4.4 | . |
| C[C@@H]1CN([C@@H](C)CO)C(=O)c2cccc(NC(=O)c3nc4ccccc4s3)c2O[C@@H]1CN(C)Cc1ccc(C(=O)O)cc1 | -0.9 | . |
| O=C1CC(c2ccco2)Cc2nc(NC3CC3)ncc21 (stereo not given) | -0.5 | -0.7 |
| Cc1ccc(Cn2c(C)c(CNC(C)CCc3ccccc3)c(C(=O)O)c2C)cc1 (stereo not given) | -5.2 | 0.1 |
| COc1ccc(S(=O)(=O)N(C)C[C@H]2Oc3c(NC(=O)c4cnccn4)cccc3C(=O)N([C@@H](C)CO)C[C@H]2C)cc1 | -0.2 | . |
| C[C@H]1CN([C@@H](C)CO)C(=O)c2cccc(NC(=O)c3ccncc3)c2O[C@H]1CN(C)S(=O)(=O)c1ccc(F)cc1 | -4.1 | . |
| O=C(CSc1nnc(NC(=O)c2ccc(Cl)c(Cl)c2)s1)Nc1ccc(F)c(F)c1F | 7.8 | -6.2 |
| COC(=O)/C=C/S(=O)(=O)c1ccc(NC(C)=O)cc1 | 16 | -0.7 |
| C[C@H](CO)N1C[C@H](C)[C@@H](CN(C)S(=O)(=O)c2ccc(Cl)cc2)Oc2c(NS(=O)(=O)c3cccs3)cccc2C1=O | 0.0 | . |
| Cc1cccc(N=Cc2c(Nc3cccc(C)c3)nc3ccccn3c2=O)c1 | 1.6 | 0.2 |
| CNC[C@H]1Oc2c(cccc2N(C)C)C(=O)N([C@H](C)CO)C[C@@H]1C | -1.4 | . |

A different layout for part of the listing above:
Values run as follows: BJeLR viability	A1 inh
C[C@@H]1CN([C@@H](C)CO)C(=O)c2cc(NS(=O)(=O)c3cn(C)cn3)ccc2O[C@@H]1CN(C)C(=O)Nc1ccc(F)cc1
    -7.8	0.3
Cc1cccc(N=Cc2c(Nc3cccc(C)c3)nc3ccccn3c2=O)c1
    1.6	0.2

Assay outcomes (PubChem BioAssay)
